# Assay outcomes (PubChem BioAssay)
# KCNQ2 enhance – enhances the rat KCNQ2 potassium channel; O88943; CHO-K1 KCNQ2, FluxOR thallium flux fluorescence; stronger effect = higher value; B-score at 10 µM; actives 0.54% (n = 310,000); AID 2239;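 active means fluorescence ratio B-score at least 3 SD of library B-scores, with initial fluorescence B-score within 3 SD, cut at about 5.3 in these data; same plate scores as AID 2156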;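 further: B-score of peak minus minimum over baseline fluorescence ratio after K+ and Tl+ stimulus; positive B-score means potentiation of KCNQ2 with more thallium influx and brighter signal; only the inactives scoring about 0 or higher are listed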
# Target sequence (O88943 whole entry, looked up): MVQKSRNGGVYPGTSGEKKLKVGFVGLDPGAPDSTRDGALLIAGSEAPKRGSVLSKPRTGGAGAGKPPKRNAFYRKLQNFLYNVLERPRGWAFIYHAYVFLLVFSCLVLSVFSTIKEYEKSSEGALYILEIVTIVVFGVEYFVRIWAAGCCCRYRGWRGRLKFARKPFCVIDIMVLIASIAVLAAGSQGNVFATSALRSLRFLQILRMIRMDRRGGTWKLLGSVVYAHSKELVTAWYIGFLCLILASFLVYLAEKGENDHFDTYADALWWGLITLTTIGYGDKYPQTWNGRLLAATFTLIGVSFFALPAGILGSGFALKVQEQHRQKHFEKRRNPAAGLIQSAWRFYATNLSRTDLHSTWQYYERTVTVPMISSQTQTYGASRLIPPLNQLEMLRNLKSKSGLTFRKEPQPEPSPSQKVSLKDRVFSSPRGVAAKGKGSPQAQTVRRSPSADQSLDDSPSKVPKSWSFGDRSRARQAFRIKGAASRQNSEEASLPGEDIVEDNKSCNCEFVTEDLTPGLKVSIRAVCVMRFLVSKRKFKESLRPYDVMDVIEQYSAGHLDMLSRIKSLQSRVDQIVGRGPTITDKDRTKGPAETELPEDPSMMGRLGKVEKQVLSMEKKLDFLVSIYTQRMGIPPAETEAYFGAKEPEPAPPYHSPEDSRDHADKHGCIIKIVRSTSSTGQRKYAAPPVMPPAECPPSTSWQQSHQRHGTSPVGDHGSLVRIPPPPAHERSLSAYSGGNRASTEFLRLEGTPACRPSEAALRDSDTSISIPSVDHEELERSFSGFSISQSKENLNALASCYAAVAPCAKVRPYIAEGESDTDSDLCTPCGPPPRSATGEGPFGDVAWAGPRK
# KCNQ2 enhance baseline – recorded beside KCNQ2 enhance, whose call it bears; B-score; compound at 10 µM; measured here: initial fluorescence intensity artifact check;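 brightness before thallium and not channel activity; 0 = typical well and far values either way flag optical interference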
# * hit, by the source's call; / = no result given. These rows are one share of the data (hit frequency here may not be typical).
# Sample of the layout (5 entries):
no.	molecule	KCNQ2 enhance	KCNQ2 enhance baseline
1	C=CCn1cc(C(=O)OCC)c(=O)c2ccc(F)cc21	0.06	-0.59
2	c1ccc(-c2ccc(-c3nc(-c4ccncc4)no3)cc2)cc1	0.71	0.46
3	CC1CCN(C(=O)C2CCN(S(=O)(=O)c3cccnc3)CC2)CC1	0.05	0.07
4	O=C(Nc1nccs1)C1CCN(S(=O)(=O)c2cnc[nH]2)CC1	0.76	0.01
5	O=C(NCCc1cccnc1)c1cc(COc2ccc(F)cc2Cl)on1	0.12	1.05

# This part in full (from the top)
no.	molecule	KCNQ2 enhance	KCNQ2 enhance baseline
1	C=CCn1cc(C(=O)OCC)c(=O)c2ccc(F)cc21	0.06	-0.59
2	c1ccc(-c2ccc(-c3nc(-c4ccncc4)no3)cc2)cc1	0.71	0.46
3	CC1CCN(C(=O)C2CCN(S(=O)(=O)c3cccnc3)CC2)CC1	0.05	0.07
4	O=C(Nc1nccs1)C1CCN(S(=O)(=O)c2cnc[nH]2)CC1	0.76	0.01
5	O=C(NCCc1cccnc1)c1cc(COc2ccc(F)cc2Cl)on1	0.12	1.05
6	Nn1c(SCc2ccccc2F)nnc1-c1ccncc1	0.05	0.02
7	COc1cc2c(cc1OC)C1(CCCCC1)CN(C)C2	0.57	0.23
8	CCOC(=O)c1c(-c2ccccc2)csc1NC(=O)c1cccc(N2C(=O)CCC2=O)c1	1.01	-1.18
9	COc1ccc(/C=C(\NC(=O)c2ccccc2)C(=O)NCCN2CCOCC2)cc1	0.26	-2.92
10	COc1ccc(-c2nc(N)n(C(=O)c3ccc(C)cc3)n2)cc1	0.01	-0.37
11	COc1cc(NC(=O)CCn2c(=O)[nH]c3ccsc3c2=O)cc(OC)c1	0.04	-0.2
12	CC(=O)NC1=NC(=O)C(C)S1 (configuration not stated)	0.7	0.89
13	O=C(O)c1ccc(Nc2ncc([N+](=O)[O-])cc2[N+](=O)[O-])cc1	0.48	0.35
14	COc1ccc(C2=NOC3(CC(=O)N(c4ccc(C)cc4)C3=O)C2)c(OC)c1 (configuration not stated)	0.08	0.55
15	CC(C)(C)n1nc2c(c1NC(=O)Cc1ccc(Cl)cc1)CS(=O)(=O)C2	0.88	-0.11
16	CC1CC(C)CN(S(=O)(=O)N2CCC(C(=O)NCCC3=CCCCC3)CC2)C1 (configuration not stated)	1.21	0.07
17	COc1ccc(C(=O)NNC(=O)c2ccncc2)cc1	0.14	0.22
18	COc1ccc(C2=NOC(C(=O)N3CCN(C(=O)c4ccco4)CC3)C2)cc1OC (configuration not stated)	0.94	-2.13
19	Cc1cc(NC(=O)CCC(=O)N(CC(=O)NCC2CCCO2)c2ccccc2C)no1 (configuration not stated)	0.22	1.19
20	CCN(CC)S(=O)(=O)c1ccc(C)c(NC(=O)COc2ccc(Br)cc2Cl)c1	1.1	-0.02
21	CCOC(=O)c1[nH]c(C)c(CCC(=O)O)c1C	0.87	/
22	CCOC(=O)[C@@H]1[C@H]2COc3ccccc3[C@@H]2N2C(=O)N(c3cccc(C)c3)C(=O)[C@]12C	0.36	-0.11
23	CCN(C(=O)COc1ccccc1)C1CCCCC1	0.72	0.81
24	Cc1ccc(Cn2nnnc2CN2CCC(c3nc4ccc(Cl)cc4[nH]3)CC2)cc1	0.33	-0.62
25	O=S(=O)(NCCC1=CCCCC1)c1ccc(F)cc1	0.13	-0.49
26	CCN(CC)c1ccc(NC(=O)c2cccc(F)c2)c(C)c1	17.3*	1.41*
27	NS(=O)(=O)c1ccc(CNC(=O)CCSCCC(=O)NCc2ccc(S(N)(=O)=O)cc2)cc1	0.79	-0.28
28	CC1CC2=C(C(=O)O1)C(C)Nc1ccccc1N2 (configuration not stated)	0.4	0.74
29	O=C(O)CCC(=O)Nc1cccc(C(=O)Nc2cccc(Cl)c2)c1	1.03	-3
30	Cc1csc(=O)n1CCC(=O)OCC(=O)NCc1ccc(F)cc1	1.12	0.02
31	O=C(O)c1cccc(-n2cccc2/C=C2\NC(=O)N(Cc3ccc(F)cc3)C2=O)c1	1.66	-0.59
32	CN1c2ccsc2C(O)=C(C(=S)Nc2ccc(F)c(Cl)c2)S1(=O)=O	0.2	-1.1
33	Cc1c(NS(=O)(=O)c2cc(C(=O)OCC(=O)N3CCC(C)CC3)ccc2Cl)c(=O)n(-c2ccccc2)n1C	0.01	-0.87
34	CNC(=S)N1N=C(c2ccc(Br)cc2)CC1c1ccc(N(C)C)cc1 (configuration not stated)	0.01	-2.85
35	NCCc1nnc(SCC(=O)Nc2ccc(Br)cc2)o1	0.41	0.03
36	COc1ccc(C2C(C#N)=C(N)Oc3c2oc(CO)cc3=O)c(OC)c1OC (configuration not stated)	0.14	-1.44
37	COC(=O)CCCNC(=O)c1ccc2oc(CCCc3ccccc3)nc2c1	2.49	0.63
38	COc1ccc(S(=O)(=O)Nc2nc3c(s2)CCCC3)cc1	0.31	-0.57
39	CCCC(=O)Nc1ccc(N2CCN(C(=O)c3cccs3)CC2)cc1	0.65	0.4
40	N/C(=N\OC(=O)CCCC(=O)O)c1ncc(C(F)(F)F)cc1Cl	0.47	-1.08
41	CCCCOc1ccccc1NC(=O)CSc1nnnn1C(C)(C)C	0.25	0.24
42	CC(=O)C1=C(O)C(=O)N(Cc2ccccc2)C1c1cccc([N+](=O)[O-])c1 (configuration not stated)	0.9	0.37
43	Cc1ccn2cc(CCNC(=O)C3CC=CCC3C(=O)O)nc2c1 (configuration not stated)	0.96	0.35
44	CCc1noc(C)c1C(=O)Nc1sc(C(=O)N(C)C)c(C)c1C#N	0.02	1.34
45	COc1ccc(-c2cc(C(F)(F)F)nc(SCc3cccc(C(=O)O)c3)n2)cc1	0.05	0.16
46	CCOc1nc(NC(C)C)nc(NC(C)C)n1	1.27	0.03
47	O=C(Nc1cc(S(=O)(=O)N2CCOCC2)ccc1N1CCCC1)C1COc2ccccc2O1 (configuration not stated)	1.67	-1.79
48	Cc1[nH]c2ccccc2c1/C=N/NC(=O)c1ccc(N)cc1	0.01	0.06
49	O=C(CSc1ccccc1C(=O)O)NC1CCCCCCC1	0.28	-0.46
50	NS(=O)(=O)c1ccc(CNC(=O)c2ccccn2)cc1	2.26	-0.94
51	COc1ccccc1CC(=O)Nc1ccc(O)cc1C(=O)O	2.43	-0.79
52	CC(=O)c1cccc(CN2CCN(Cc3ccc(F)cc3)C(CCO)C2)c1 (configuration not stated)	0.34	-0.87
53	COc1ccc(CC(=O)N2CCN=C2SCc2cccc([N+](=O)[O-])c2)cc1	0.01	0.62
54	O=C(COC(=O)CCc1nc2ccccc2c(=O)[nH]1)NCc1ccc(F)cc1	0.05	-0.79
55	Cn1cc(Cl)c(C(=O)OCC(=O)Nc2cccc(Cl)c2)n1	0.64	0.94
56	COc1ccc(Nc2cc(C)nc3ccc(OC)cc23)cc1	2.35	-1.05
57	CCCCN(CCO)c1ncnc2sc(-c3ccccc3)cc12	0.44	-0.18
58	CC(CN1CCOCC1)OC(=O)CCc1ccccc1 (configuration not stated)	0.12	1.2
59	O=C(c1cc2c(ccc3ccccc32)oc1=O)N1CCCC1	2.09	-1.47
60	CCc1c(C)nc(SCC(=O)NNC(=O)Cc2ccc(OC)cc2)[nH]c1=O	0.56	-1.75

# (list continues)
no.	molecule	KCNQ2 enhance	KCNQ2 enhance baseline
61	O=C(NCc1ccc2c(c1)OCO2)c1cccc(F)c1	1.62	0.34
62	O=C(Cn1c(SCC(=O)N2CCCc3ccccc32)nc2ccccc21)N1CCCC1	0.74	0.05
63	CN(C)CCNC(=O)Cn1ccc2cc(S(=O)(=O)N3CCCCC3)ccc21	1.35	0.52
64	CC(C)C(c1nnnn1Cc1ccco1)N1CCC(C(N)=O)CC1 (configuration not stated)	0.3	0.29
65	CN(C)CCCC1(O)c2ccccc2CCc2ccccc21	1.21	1.94
66	Cc1onc(-c2ccccc2Cl)c1C(=O)NCc1ccc(F)cc1	0.08	1.81
67	CCc1ccc(/C=C2\SC(=S)N(CCC(=O)Nc3cc(C)on3)C2=O)cc1	0.8	0.03
68	COc1ccccc1NC(=O)C1CCCN(c2ncnc3c2nc2n3CCCCC2)C1 (configuration not stated)	0.64	-0.41
69	CCCCc1nnc(NC(=O)CS(=O)(=O)Cc2ccccc2)s1	0.07	0.02
70	COc1ccccc1N1CCN(C2CCC(C)CC2)CC1 (configuration not stated)	0.67	1.16
71	Cc1cc(C)n2nc(S(=O)(=O)NC3CCCCC3)nc2n1	0.54	-0.02
72	CN(C)CCN(C(=O)c1ccc2c(c1)OCCO2)c1nc2c(Cl)cccc2s1	0.25	0.01
73	O=C(c1cc(S(=O)(=O)N2CCCCC2)ccc1F)N1CCCCC1	2.69	1.73
74	O=C1N=C(O)CN1/N=C/c1ccc(-c2ccc([N+](=O)[O-])cc2)o1	0.3	-0.02
75	N#CCCN(CCC#N)c1nnc(-c2ccccc2)s1	1.61	1.29
76	COc1ccc(NC(=O)/C(C#N)=C\c2ccc(-c3cc(C(=O)O)ccc3C)o2)cc1	0.03	-2.55
77	Cc1ccc(SCCC(=O)N(C)C)cc1	0.26	-0.96
78	O=C(c1cc2cc(F)ccc2[nH]1)N1CCN(c2ccc(F)cc2)CC1	2.07	0.93
79	CCOc1cc(CNc2ncc(-c3ccc(OC)cc3)n2C)ccc1O	0.28	0.51
80	COc1ccc(C(=O)OCC(=O)NCc2ccc3c(c2)OCO3)cc1[N+](=O)[O-]	0.37	0.35

# Random excerpt: 4 entries already listed
no.	molecule	KCNQ2 enhance	KCNQ2 enhance baseline
55	Cn1cc(Cl)c(C(=O)OCC(=O)Nc2cccc(Cl)c2)n1	0.64	0.94
23	CCN(C(=O)COc1ccccc1)C1CCCCC1	0.72	0.81
67	CCc1ccc(/C=C2\SC(=S)N(CCC(=O)Nc3cc(C)on3)C2=O)cc1	0.8	0.03
11	COc1cc(NC(=O)CCn2c(=O)[nH]c3ccsc3c2=O)cc(OC)c1	0.04	-0.2

# Next section:
no.	molecule	KCNQ2 enhance	KCNQ2 enhance baseline
81	O=C1CC(c2ccco2)CC(O)=C1C=Nc1cc(Cl)ccc1O (configuration not stated)	2.72	-2.56
82	COc1ccc(CNC(=O)CCS(=O)(=O)Cc2cccc(Cl)c2)c(OC)c1	0.97	-1.2
83	C=CCN(C(=O)c1csnn1)C(C(=O)NC1CCCC1)c1ccccc1 (configuration not stated)	1.13	0.07
84	COC(=O)C1=C(C)N(C)C(C)=C(C(=O)OC)C1c1ccc(C(=O)OC)cc1	0.04	-0.65
85	COc1ccc(CNC(=O)C(c2ccco2)N(Cc2ccccc2)C(=O)Cc2cccs2)cc1 (configuration not stated)	1.09	0.43
86	Cc1ccc(C)c(SCc2noc(C(=O)NCC3CCCO3)c2C(=O)O)c1 (configuration not stated)	0.99	1.04
87	CCN(CC)S(=O)(=O)c1cccc(NC(=O)C(=O)c2c(-c3ccccc3)cc3ccccn23)c1	0.16	1.28
88	CC(=O)c1c(C)[nH]c(C(=O)NCc2ccc(F)cc2)c1C	0.1	0.52
89	CCCCOc1ccc(CC2CCC(=O)NC2=O)cc1 (configuration not stated)	0.4	2.21
90	CCCN=Cc1ccc(O)cc1	0.75	-0.95
91	NC(=O)[C@H](Cc1cc2ccccc2s1)NC(=O)[C@@H]1CC2(CC(c3cccc(NC(=O)[C@@H]4CCC(=O)N4)c3)=NO2)CN1C(=O)/C=C/c1c(F)cccc1Cl (some centres not stated)	0.81	0.96
92	O=C1NC(NS(=O)(=O)c2ccccc2)(C(F)(F)F)C(=O)N1Cc1cccnc1 (configuration not stated)	0.48	-1.65
93	Cc1cccc(C)c1NC(=S)N1CC(C)OC(C)C1 (configuration not stated)	0.24	0.09
94	COC(=O)Nc1ccc(S(=O)(=O)N2CCCC(C(=O)N3CCCCC3)C2)cc1 (configuration not stated)	0.77	-0.07
95	Nc1nc2c(s1)CCCCCCCCCC2	6.01*	0.61*
96	Cc1cccc(CC(=O)OCn2nnc3ccccc3c2=O)c1	2.31	-0.02
97	CCOC(=O)c1ccc(NC(=O)c2nc[nH]c2C(=O)NC)cc1	0.89	-0.04
98	O=[N+]([O-])c1ccc(C[n+]2cccc3ccc4cccnc4c32)cc1	0.54	1.18
99	Cn1nc(-c2ccc(C(=O)Nc3cccc(Cl)c3)cc2)c2ccccc2c1=O	0.12	1.3
100	Cc1cc(-c2cc(C(=O)NCc3ccccc3)on2)nc(NC2CCCC2)n1	0.29	0.42
101	CCCc1cc(N2CCCC(C(=O)NCc3ccc4c(c3)OCO4)C2)n2ncnc2n1 (configuration not stated)	0.03	1.41
102	COc1ccccc1CNC(=O)CSc1nc(N)c(C#N)c(-c2cccs2)c1C#N	0.21	-0.11
103	COC(=O)CNC(=O)c1cc(OC)cc(OC)c1	0.41	0.19
104	CC(=O)N1CCc2cc(S(=O)(=O)Nc3ccc(C)cc3C)ccc21	0.84	-0.68
105	COC(=O)c1ccc(CSc2n[nH]c(-c3ccccc3)n2)o1	0.65	-0.76
106	O=C(COC(=O)c1cccnc1Cl)Nc1ccc2c(c1)OCCO2	1.35	-0.61
107	COc1ccc(NC(=O)c2ccc3c(c2)C(=O)N(CC2CCCO2)C3=O)cc1 (configuration not stated)	1.28	-0.61
108	COc1ccc(-c2c(C#Cc3ccsc3)c3ccccc3n2C)cc1	0.6	-0.34
109	COCCN1CC(CNC(=O)c2cc(COc3ccc(C)c(C)c3)on2)CC1=O (configuration not stated)	1.07	1.39
110	COc1ccc(NS(=O)(=O)c2cnc[nH]2)cc1	0.91	1.27
111	Cc1ccc(S(=O)(=O)N2CCN(C(=O)c3cc(-c4cccs4)nn3-c3ccccc3)CC2)cc1	0.26	-0.44
112	COc1cc(-c2nc3sc(C)c(C)c3c(=O)o2)cc(OC)c1OC	0.01	-1.69
113	CCCc1nnc(NC(=O)c2c(O)c3cccc4c3n(c2=O)CCC4)s1	0.11	-2.17
114	O=C(CSc1ncnc2ccccc12)N1CCCC1	0.09	1.98
